H5N1 antiviral: MDCK cell protection from H5N1 avian flu; cytopathic effect, luminescence, 72 h; stronger effect = higher value; no value below 0 was filed and about half of the inactive calls have no number; reference of the scale not given here; inhibition, % at 50 µM; 96,000 compounds, 0.07% hits; in the data active = inhibition above about 25%
* = called active by the depositor; i = inactive. Some of the compounds tested; rates above refer to the full screens.

SMILES | H5N1 antiviral
Cc1cc(OC(C)C(=O)N/N=C/CC(C)c2ccccc2)ccc1Cl (stereo not drawn) | i
O=C(N/C=C/c1ccccc1)Nc1ccc(Cl)cc1 | 1.0
O=C(NC(C(=O)O)c1ccccc1)c1ccc(S(=O)(=O)N2CCOCC2)cc1 (stereo not drawn) | 1.2
COC(=O)c1cc(NCc2c(F)cccc2Cl)ccc1N1CCOCC1 | i
COc1cc(CNn2nnnc2N)ccc1OCC(=O)NC(C)(C)C | 0.2
Cc1cc2nc(C)n(CCCNC(=O)Nc3cccc4ccccc34)c2cc1C | i
CC(=O)N1c2c(cc(Br)cc2S(=O)(=O)N2CCN(C(=O)c3ccco3)CC2)CC1C (stereo not drawn) | 1.7
O=C(NC1CCCCC1)c1ccc(N2CCCC2=O)cc1 | 1.0
CCN(CC)c1ccc(NC(=O)Nc2cccc(C(C)=O)c2)cc1 | i
CCc1nnc(NC(=O)CSc2nnc(-c3cc4ccccc4cc3O)n2CCOC)s1 | i
COc1ccc(/C(O)=C/Sc2nnc(Cc3ccccc3)o2)cc1 | i
CCOc1ccc(S(=O)(=O)NCCC(=O)OCN2C(=O)c3ccccc3C2=O)cc1 | i
COc1ccc(NC2=Nc3ccccc3N3C2=Nc2c(c(C)nn2-c2ccc(C)cc2)C3c2cccnc2)cc1 (stereo not drawn) | 1.4
Cc1cccc2sc(NC(=O)C3CCCN(S(=O)(=O)c4cccc5nonc45)C3)nc12 (stereo not drawn) | i
COc1cccc(NC(=O)C2CC(=O)OC23CCOC(C)(C)C3)c1 (stereo not drawn) | i
Cc1cccc(N(C(=O)CNC(=O)c2cccs2)C(C(=O)NC2CCCC2)c2cccnc2)c1 (stereo not drawn) | 5.8
CCOC(=O)C1CCCN(S(=O)(=O)c2cccs2)C1 (stereo not drawn) | 0.4
Cc1nnc(NC(=O)Oc2ccccc2)s1 | 0.2
O=C(NCc1ccco1)c1ccc(=O)oc1 | 0.9
COc1ccc(OC)c2[nH]c(=O)c(CCNC(=O)c3cc4ccccc4o3)cc12 | 0.3
CCOc1ccc(-n2c(Cc3cc(=O)[nH]c(=O)[nH]3)nnc2SCc2cccnc2)cc1 | 1.1
Cc1ccc(C(=O)N2CCCC2)cc1Br | i
CCN(CCCNC(=O)CN(C)S(=O)(=O)c1cccc2nsnc12)c1ccccc1 | 0.4
Cc1cccc(C(=O)Nc2nnc(Cc3c[nH]c4ccccc34)s2)c1 | i
O=c1[nH]c(NCCO)nc2c1C1(CCCC1)Cc1ccccc1-2 | 0.1
(list continues)
SMILES | H5N1 antiviral
Cc1ccc(NC(=S)/C(=C(\[O-])c2ccc(C)c([N+](=O)[O-])c2)[n+]2ccccc2)cc1C | i
COC(=O)C1=C(C)C(c2ccc(OC)cc2OC)NC(=O)N1 (stereo not drawn) | i
CCOc1cc(C2/C(=C(\O)c3cc(C)ccc3C)C(=O)C(=O)N2CCN(C)C)ccc1O (stereo not drawn) | 0.4
O=C(CCCc1ccccc1)NC1CCSC1=O (stereo not drawn) | i
Cc1cnc(C(=O)OCC(=O)NC2CCCC(C)C2C)cn1 (stereo not drawn) | 0.1
COc1cc(OC)cc(C(=O)Nc2ccccc2C(=O)N2CCCC2)c1 | i
NC(=O)CN1CCOCCOCCOCCOCCOCC1 | 0.1
O=C(/C=C/c1ccc(OCCCF)cc1)NCc1cccc(Cl)c1 | i
Cc1cc(=O)oc2cc(OC(C)C(=O)N3CCOCC3)ccc12 (stereo not drawn) | i
COc1ccccc1OCC(=O)Nc1ccc(C(N)=O)cc1 | i
N#CCCN1CCN(S(=O)(=O)c2ccc(C#N)cc2)CC1 | 1.0
CCCNc1ncnc2c1cnn2-c1ccc(OC)cc1 | i
COc1ccc(/C=C2\N=C(SC)N(C)C2=O)cc1 | i
c1ccc(NCc2nc(-c3ccccc3)no2)cc1 | 1.0
CCCc1nc(N2CCN(C)CC2)c2sc(=S)n(-c3ccccc3)c2n1 | 0.5
COc1ccc(C(=O)c2ccccc2Cl)cc1 | i
N=c1n(CCN2CCCCC2)c2ccccc2n1CC(O)COc1ccccc1 (stereo not drawn) | i
COc1ccccc1NC(=O)c1ccccc1NC(=O)c1cc(Cl)ccc1NC(=O)c1ccco1 | 1.1
O=C(CCN1C(=O)c2ccccc2C1=O)Nc1ccc(-c2cn3ccsc3n2)cc1 | 0.4
CN1C(=O)N(C)C2(CC1(C)C)CC(C)(C)N(C)C(=O)N2C | i
Cc1ccc(OCc2cc(C(=O)Nc3ccccc3)oc2C)cc1 | i
Cc1ccc(-n2nc(-c3cccs3)cc2C(=O)NCC2CCCO2)c(C)c1 (stereo not drawn) | i
CCCCN(C(=O)Nc1ccc(Cl)cc1)C1CCN(C(C)=O)CC1 | i
O=C(COc1ccc(Cl)cc1)Nc1ccccc1CO | i
N/C(CSc1nc(-c2ccccc2)c(-c2ccccc2)o1)=N\O | i

Rewritten with tabs: five of the compounds above
smiles	H5N1 antiviral
O=C(/C=C/c1ccc(OCCCF)cc1)NCc1cccc(Cl)c1	i
N=c1n(CCN2CCCCC2)c2ccccc2n1CC(O)COc1ccccc1 (stereo not drawn)	i
CCOc1cc(C2/C(=C(\O)c3cc(C)ccc3C)C(=O)C(=O)N2CCN(C)C)ccc1O (stereo not drawn)	0.4
CCCc1nc(N2CCN(C)CC2)c2sc(=S)n(-c3ccccc3)c2n1	0.5
Cc1ccc(-n2nc(-c3cccs3)cc2C(=O)NCC2CCCO2)c(C)c1 (stereo not drawn)	i

7 compounds picked at random from those above, as already listed:
SMILES | H5N1 antiviral
CCOc1cc(C2/C(=C(\O)c3cc(C)ccc3C)C(=O)C(=O)N2CCN(C)C)ccc1O (stereo not drawn) | 0.4
COc1ccc(/C=C2\N=C(SC)N(C)C2=O)cc1 | i
N=c1n(CCN2CCCCC2)c2ccccc2n1CC(O)COc1ccccc1 (stereo not drawn) | i
c1ccc(NCc2nc(-c3ccccc3)no2)cc1 | 1.0
Cc1ccc(-n2nc(-c3cccs3)cc2C(=O)NCC2CCCO2)c(C)c1 (stereo not drawn) | i
Cc1cnc(C(=O)OCC(=O)NC2CCCC(C)C2C)cn1 (stereo not drawn) | 0.1
COc1ccc(C(=O)c2ccccc2Cl)cc1 | i

The list continues:
SMILES | H5N1 antiviral
COc1ccc(CNc2n[nH]c(NCc3ccc(OC)c(OC)c3)n2)cc1OC | i
COc1cc2[nH]c(=O)n(CCC(=O)N3CC=C(c4ccccc4)CC3)c(=O)c2cc1OC | 0.5
CC1CCC(C(C)C)C(OC(=O)CSc2nnc(N)s2)C1 (stereo not drawn) | i
CCNC(=O)CC1C(=O)N(c2ccc(F)cc2)C(=O)N1Cc1ccc(OC)cc1 (stereo not drawn) | i
O=C(NCN1C(=O)C2C3C=CC(C3)C2C1=O)Nc1nncs1 (stereo not drawn) | i
CCOC(=O)N1CCN(c2nc(C)c3c(n2)CC(C)CC3=O)CC1 (stereo not drawn) | 1.8
Cc1ccccc1-n1nnnc1SC1CCOC1=O (stereo not drawn) | i
COc1cccc(OCCNC(=O)c2cccc(OC)c2)c1 | i
CN(CCO)c1cc(Sc2nc3ccccc3s2)c2nonc2c1[N+](=O)[O-] | 3.8
COCCNC(=O)c1ccc2c(c1)ncn2-c1ccc(F)c(F)c1 | i
COc1cc(OC)cc(C(=O)N2CCN(S(C)(=O)=O)CC2)c1 | 0.2
Cc1ccc(CSc2nnc(NC(=O)C3COc4ccccc4O3)s2)cc1 (stereo not drawn) | i
CCCc1nnc(NC(=O)c2cc3ccccc3oc2=O)s1 | i
CC1(C)CC(=O)C(C=Nc2ccccc2)=C(O)C1 | i
CC1CCc2c(nc3ncnn3c2N2CC(C)OC(C)C2)C1 (stereo not drawn) | 1.1
C=CCn1c(=O)c2ccccc2n2c(SCC(=O)/C(C#N)=C(\C)N)nnc12 | 0.9
CCC(=O)Nc1ccc(NC(=O)c2ccco2)cc1 | i
CCOc1ccccc1CNc1ccc(N2CCOCC2)c(C(=O)O)c1 | 2.1
CCSc1nnc(Nc2ccccc2)s1 | i
Cc1ccc2nc(N/N=C/c3ccccc3C#N)nc(-c3ccccc3)c2c1 | 10.3
O=C(CC1(C(F)(F)F)OCCO1)Nc1ccc2c(c1)OCO2 | 0.6
CCn1c(SCC(=O)Nc2cc(C)ccc2C)nc2c(c1=O)SC(C)C2 (stereo not drawn) | 0.5
CCSc1nc(C)cc(Oc2ccc(=O)n(C)n2)n1 | i
Oc1ccccc1C1=Nc2ccccc2N=C(c2ccco2)C1 | i
Cc1ccc2c(CC(=O)OCc3cc(=O)n4c(n3)sc3ccccc34)coc2c1 | i
Other compounds follow.
SMILES | H5N1 antiviral
CC(=O)N1CCN(c2ccccc2NC(=O)COc2ccc(Cl)cc2Cl)CC1 | 0.8
Cc1cc2c(cc(C(=O)OC(C(=O)NCc3ccco3)C(C)C)n2C)o1 (stereo not drawn) | 0.7
CCN(CC)C(=O)CSc1nc2cccnc2n1-c1ccccc1OC | 0.0
CN(C)CC(=O)c1c[nH]c2ccccc12 | 0.1
O=C(NC1=NCCS1)C1Cc2ccccc2CN1C(=O)c1ccccc1 (stereo not drawn) | i
O=C(CN1CCCCCC1)Nc1ccccc1F | i
CCCC(=O)Nc1c(C)n[nH]c1C | i
Cc1cc2c(cc1C)C(=O)NC(C)(C)C2 | 0.9
Cc1nc(N2CCCC2)c2ccsc2n1 | i
CCc1nc(Sc2nc(C)cc(C)n2)c2oc3ccccc3c2n1 | 8.7
COC(=O)c1nc2n(n1)C(c1cccc(Cl)c1)C1=C(CCCC1=O)N2 (stereo not drawn) | 0.3
COc1cc(NC(=O)Nc2ccccc2OC)c(OC)cc1NC(=O)CN1CCCCC1 | i
O=C(Nc1cccc(C(F)(F)F)c1)/C(=C/c1ccco1)NC(=O)c1cccs1 | i
Cc1nnc(SCC(=O)NCc2ccc3c(c2)OCO3)[nH]c1=O | i
Cc1ccc(-c2nn(-c3ccccc3)cc2/C=N/NS(=O)(=O)c2ccccc2)cc1 | 0.2
Cc1c(NC(=O)c2cc(-n3cnnc3)ccc2Cl)cccc1-c1nc2ccccc2o1 | i
N#Cc1c(NC(=O)CSc2ncn(-c3ccccc3)n2)sc2c1CCCC2 | i
O=C(COc1ccc2ccccc2c1Br)Nn1cnnc1 | 0.1
Cc1cccc(OCCn2c(CCCO)nc3ccccc32)c1 | 1.3
Cc1cc(C)nc(N/N=C/C(Cl)=C/c2ccccc2)n1 | i
O=C(NC(Cc1ccccc1)C(=O)O)/C(=C\c1ccc(F)cc1)NC(=O)c1ccccc1 (stereo not drawn) | 1.4
O=C(CCCl)Nc1cc(SCCO)cc([N+](=O)[O-])c1 | 0.4
CC(=O)OCC(OC(C)=O)C(OC(C)=O)C(OC(C)=O)C(=O)Nc1ccc(C)cc1 (stereo not drawn) | i
COc1cccc(-n2c(SCC(N)=O)nnc2-c2ccncc2)c1 | 0.5
Nc1nonc1-n1nncc1-c1ccccc1 | i
Remaining list, next part:
SMILES | H5N1 antiviral
CCc1cc2c(NCCN3CCCCC3)ncnc2s1 | i
Cc1ccc(-c2nnc3c4ccccc4c(C)nn23)cc1NC(=O)CN1CCOCC1 | i
CCOc1ccc(N2C(=O)CSC2c2ccncc2)cc1 (stereo not drawn) | i
Cc1ccccc1CSCC(=O)NC1CCCC1 | 1.1
CCC(C)(C)c1ccc(OCCN2C(=O)NC(C)(C)C2=O)cc1 | 1.0
COc1ccc(-c2noc(CCC(=O)N3CCN(Cc4ccccc4)CC3)n2)cc1 | i
O=C(CCN1CCc2ccccc2C1)Nc1ccc(F)cc1 | i
Clc1ccc(CON/C=N/c2ncnc3sccc23)cc1 | i
C=C(C)COc1ccc(-c2n[nH]c(C)c2-c2ccc(Br)cc2)c(O)c1 | i
CCOC(=O)c1ccc(NC(=O)CN(c2ccc(C)cc2)S(=O)(=O)c2c(C)nn(C)c2C)cc1 | i
Oc1ccccc1/C=N/NC1=NCCCCC1 | 0.6
COCCCNC(=O)CC(NS(=O)(=O)c1ccc(Cl)cc1)c1ccco1 (stereo not drawn) | i
Cn1c(=N)n(CC(O)c2cccc3ccccc23)c2ccccc21 (stereo not drawn) | i
CC(=O)OCc1cc2cc(C)ccc2[nH]c1=O | 0.8
O=C(CN1CCOCC1)N1CCN(S(=O)(=O)c2ccccc2)C1c1ccccc1 (stereo not drawn) | 0.8
O=C(Nc1ccc(SC(F)F)cc1)c1cccc2nc3ccccc3nc12 | 0.4
CCOc1ccccc1N(CC(=O)N1CCOCC1)S(=O)(=O)c1ccc(SC)cc1 | 3.5
C=CCn1c(CC#N)nnc1N1CCOCC1 | 1.1
CCSc1oc(-c2ccco2)nc1S(=O)(=O)c1ccccc1 | 1.2
CCc1cc(=O)oc2cc(OC(C)C(=O)O)c(Cl)cc12 (stereo not drawn) | 0.8
O=C(CN(Cc1ccccc1F)C(=O)c1ccco1)NCc1ccc(F)cc1 | i
OC(CCN1CCOCC1)(c1ccc(Cl)cc1)C1CCCCC1 (stereo not drawn) | 1.1
CCS(=O)(=O)N1CCC(C(=O)NCCc2ccc(OC)c(OC)c2)CC1 | i
O=C1CCCC2=C1C(c1cccs1)n1nc(SCc3ccccc3F)nc1N2 (stereo not drawn) | i
COc1ccc(CNCCC(c2ccc(OC(C)C)cc2)C(C)C)cc1OC (stereo not drawn) | i

Among those listed so far, these have a nitro group on carbon:
SMILES | H5N1 antiviral
Cc1ccc(NC(=S)/C(=C(\[O-])c2ccc(C)c([N+](=O)[O-])c2)[n+]2ccccc2)cc1C | i
CN(CCO)c1cc(Sc2nc3ccccc3s2)c2nonc2c1[N+](=O)[O-] | 3.8
O=C(CCCl)Nc1cc(SCCO)cc([N+](=O)[O-])c1 | 0.4

(next part)
SMILES | H5N1 antiviral
C=CCSc1nc2c(c(=O)n(C)c(=O)n2C)n1CC | 0.8
CCn1nnnc1SCC(=O)N(C1CCCCC1)C1CCCCC1 | 1.8
CCCc1nc2n[nH]c(N)c2c2c1CCC2 | 0.2
COc1ccc(CNc2nc(NCc3ccc(OC)cc3)n(S(C)(=O)=O)n2)cc1 | 0.2
COCC(=O)Nc1c(C(=O)Nc2ccccc2OC)oc2ccccc12 | i
Cc1ccc(OCCNC(=O)C2CC(=O)N(c3ccc(C)cc3)C2)cc1 (stereo not drawn) | 0.4
CC1CCCCC1NC(=O)COC(=O)c1ccccn1 (stereo not drawn) | 0.4
CC(=O)NCCc1nc2ccccc2[nH]1 | 0.8
CCCCCC(=O)Nc1ccc2oc(-c3ccncc3)nc2c1 | i
Cc1cccc(OC2(c3ccccc3)OC(=O)c3ccccc32)c1C (stereo not drawn) | 1.4

Shown in markdown: two of the compounds above.
| structure | H5N1 antiviral |
| --- | --- |
| CCCc1nc2n[nH]c(N)c2c2c1CCC2 | 0.2 |
| COc1ccc(CNc2nc(NCc3ccc(OC)cc3)n(S(C)(=O)=O)n2)cc1 | 0.2 |
